E coli growth – inhibitors of Escherichia coli growth | AID 1053175 | OD600 absorbance (test concentration not listed) | OD600, 23 h; hits give low values | 330,000 compounds, 0.21% hits;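 active = OD600 absorbance below the run mean of sample wells minus 3.6 SD, in any replicate, cut at about 0.56 in these data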;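 also: stock transfer was 300 nL into about 60 µL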
ALR inh – human ALR oxidase inhibition via reduced H2O2. 290,000 compounds, 3.8% hits. AID 485317. purified ALR, DTT oxidation, H2O2 HRP-luminol luminescence. P55789. inhibition, % (concentration not given with the values);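 active = mean and each replicate at 75% or more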;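 also: stock transfer was 7.5 nL into about 7.5 µL; 0% = neutral wells and 100% = wells with inactivated enzyme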
HNF4A DNA FP – change in binding of human HNF4 alpha to DNA; HNF4a-FITC DNA binding, fluorescence polarization, 1 h; activity change, % at 10 µM; 360,000 compounds, 0.3% hits; AID 1224865; in the data active = activity change above about 30%, passing the limit was not always enough;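 also: controls were the assay level and a saturating level of protein; the project sought stronger binding though the title names inhibitors; some compounds called inactive have numbers as strong as hits; positive values seem to mean higher polarization but the record does not say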
Target sequence (P41235 whole entry, looked up): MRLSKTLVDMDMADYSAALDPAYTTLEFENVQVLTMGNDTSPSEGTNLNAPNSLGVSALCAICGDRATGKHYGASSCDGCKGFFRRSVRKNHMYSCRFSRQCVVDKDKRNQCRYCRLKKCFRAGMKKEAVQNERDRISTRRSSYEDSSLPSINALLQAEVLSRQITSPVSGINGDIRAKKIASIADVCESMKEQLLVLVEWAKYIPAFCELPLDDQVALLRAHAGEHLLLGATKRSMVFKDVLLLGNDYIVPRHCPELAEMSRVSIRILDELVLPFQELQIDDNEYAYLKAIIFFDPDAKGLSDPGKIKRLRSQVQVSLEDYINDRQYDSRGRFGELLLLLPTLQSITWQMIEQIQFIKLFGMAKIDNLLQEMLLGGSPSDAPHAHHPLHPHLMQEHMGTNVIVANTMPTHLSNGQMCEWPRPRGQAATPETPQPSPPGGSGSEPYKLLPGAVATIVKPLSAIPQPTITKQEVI
UCH37 inh – blocks the human deubiquitinase UCH37; 330,000 compounds, 0.33% hits; purified proteasome/UCH37, Ub-AMC cleavage fluorescence; Q9Y5K5; AID 588478; inhibition, % (no concentration beside the values);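 active = mean of two replicates above 20%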;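 also: 0% = compound-free wells with enzyme and 100% = wells lacking proteasome; stock transfer was 100 nL into about 20 µL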
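Test system – human UCH37 enzyme supplied as purified proteasome complex · Incubation – 30 min preincubation with enzyme, 25 min cleavage at room temperature · Detection – AMC fluorescence from Ub-AMC cleavage, excitation 355 nm, emission 460 nm · Benchmarks – no-proteasome wells (full inhibition) and compound-free wells (no inhibition)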
Beta2AR agonist – human beta-2 adrenergic receptor agonism by FAP | Am2.2-beta2AR cells, FAP receptor internalization, flow cytometry; reference of the scale not given here | 340,000 compounds, 0.43% hits | P07550 | response, % (concentration not given with the values);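 active = response above a set limit, near 3 SD of response in nonfluorescent compounds, cut at about 42% in these data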;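 also: stock transfer was 100 nL into about 11 µL; a reference agonist was the positive control; negative values mostly stem from fluorescent compounds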
Target sequence (P07550 whole entry, looked up): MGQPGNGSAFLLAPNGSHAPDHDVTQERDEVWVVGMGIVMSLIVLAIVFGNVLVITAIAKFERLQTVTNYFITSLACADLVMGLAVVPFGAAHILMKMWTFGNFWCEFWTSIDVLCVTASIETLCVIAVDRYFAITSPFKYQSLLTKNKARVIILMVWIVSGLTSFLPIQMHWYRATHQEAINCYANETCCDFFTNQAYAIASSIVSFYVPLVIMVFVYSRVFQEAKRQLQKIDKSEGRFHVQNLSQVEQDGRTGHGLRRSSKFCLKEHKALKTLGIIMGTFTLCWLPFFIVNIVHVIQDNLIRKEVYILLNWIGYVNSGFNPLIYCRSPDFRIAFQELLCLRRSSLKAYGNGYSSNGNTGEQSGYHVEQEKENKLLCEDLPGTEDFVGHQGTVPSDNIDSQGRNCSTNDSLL
rRNA inh HTS – inhibits bacterial ribosomal RNA function over humanized ribosomes. E. coli WT GFP vs humanized-ribosome RFP mutants, fluorescence, 24 h; hits give low values; DMSO median 0, no signal -100. GFP signal change (wild-type ribosome), % (concentration not given with the values). 350,000 compounds, 1.6% hits. AID 720706;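 active = significant combined selectivity score with lowered wild-type GFP, culture density cut under 30%, mutant RFP and density less affected; inactive = any of these conditions unmet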; also: one replicate is shown; some compounds called inactive have numbers as strong as hits
FGF22 binding – binders of recombinant human FGF22 by thermal shift; Q9HCT0; SYPRO orange fluorescence; percent of sucrose octasulfate shift, DMSO zero; calls only at 9.99 µM; 340,000 compounds, 1.5% hits; AID 651658;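 active = melting point raised past a set limit in the mean and every replicate; three in four hits are not shown here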
Target sequence (Q9HCT0 whole entry, looked up): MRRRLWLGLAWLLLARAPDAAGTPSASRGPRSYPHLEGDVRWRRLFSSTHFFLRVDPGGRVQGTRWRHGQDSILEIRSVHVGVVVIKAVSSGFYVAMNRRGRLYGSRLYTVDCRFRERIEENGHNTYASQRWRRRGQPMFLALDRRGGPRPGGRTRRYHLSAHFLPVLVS
rRNA inh HTS OD600 – further read-out of rRNA inh HTS, marked with its call; OD600 change, %; measured here: OD600 growth;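 optical density of the mix in the first replicate; 0 = DMSO median and -100 = no signal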
rRNA inh HTS RFP – further read-out of rRNA inh HTS, marked with its call; RFP signal change, %; measured here: RFP humanized mutant strains;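 first replicate; 0 = DMSO median and -100 = no signal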
Starred values were filed as active, the others as inactive; i = inactive; · = not tested or not shown; & = joins results of further samples. The list is partial; rates above refer to the full screens.

SMILES	E coli growth	ALR inh	HNF4A DNA FP	UCH37 inh	Beta2AR agonist	rRNA inh HTS	rRNA inh HTS OD600	rRNA inh HTS RFP	FGF22 binding
CCC1(CC)NC(=O)N(CC(=O)OCC(=O)NC(=O)c2ccccc2)C1=O	0.69	·	-0.6	-0.4	-4	10	7	0.2	i
COc1ccc(CNC(=S)N/N=C/c2ccncc2)cc1	·	6	4.3	·	-5	-3	-5	-0.7	i
Cc1ccc(CNC(=O)c2oc3ccc(S(=O)(=O)N4CCOCC4)cc3c2C)cc1	0.66	-8	3.3	-0.3	11	·	·	·	·
C=CCn1c(C)cc(C(=O)CSc2nc3ccccc3[nH]2)c1C	0.67	-1	-0.8	2.7	-2	·	·	·	·
CCOC(=O)C1CCCN(C(=O)c2cc(-c3ccncc3)nc3ccccc23)C1 (stereo not drawn)	0.71	-4	-0.4	-1.1	3	3	-7	-1.0	i
CCN(CC)c1ccc(C(=O)OCC(=O)c2ccco2)cc1	0.73	2	-0.8	-1.1	4	·	·	·	·
CCNc1nc(NC#N)nc(SCC(=O)OCC)n1	0.72	6	-1.2	-3.0	2	·	·	·	·
CCOC(=O)C1=C(N)Oc2ccc3ccccc3c2C1c1ccc(O)cc1 (stereo not drawn)	0.64	56	-0.8	5.0	5	-28	-30	2.3	i
Cc1cc(=O)oc(C)c1C(=O)Nc1cccc2ccccc12	0.72	-6	-0.1	5.8	-4	·	·	·	·
COC(=O)c1[nH]c2cc(C)ccc2c1NC(=O)CN1CCc2cc(OC)c(OC)cc2C1	0.68	·	-2.5	-1.6	4	·	·	·	·
COc1ccc(CN2CCn3nc(C(=O)NC(C)C)cc3C2=O)cc1	0.72	-3	1.7	5.9	-8	19	19	-2.0	i
CCN1C[C@@H]2[C@@H]3C(=O)N(Cc4ccccc4)C(=O)[C@@H]3[C@](Cc3ccccc3)(C(=O)OC)N2C1=NC	0.72	·	1.6	2.4	11	7	14	-5.8	·
C[C@@H](NC(=O)c1nc[nH]c1C(=O)N[C@H](C)c1ccccc1)c1ccccc1	·	13	1.4	5.1	1	3	-3	1.5	i
CCN(C(=O)COC(=O)CCCN1C(=O)c2cccc3cccc(c23)C1=O)C1CCS(=O)(=O)C1 (stereo not drawn)	0.65	-1	-1.6	-157	9	2	3	0.3	i
O=C(CSc1ncnc2[nH]ncc12)Nc1cccc(Oc2ccccc2)c1	0.66	98*	1.6	-0.6	15	-43*	-18*	-1.4*	i
CCc1ccccc1N1C[C@@]23C=C[C@@H](O2)C(C(=O)OCC(C)C)[C@H]3C1=O (stereo partly drawn)	0.73	-3	-3.4	-0.1	0	·	·	·	·
O=C(NC1CC1)C1=C[C@@H](c2ccc3c(c2)OCO3)C[C@@H](OCc2ccc(CO)cc2)O1	·	·	1.1	-1.1	-13	-2	-6	-3.6	i
COc1ccc(CCNC(=O)COC(=O)c2cnc(C)cn2)cc1	0.69	18	-0.3	1.0	6	·	·	·	·
COC(=O)c1ccc(NC(=O)CN2CCN(c3ccc(Cl)cc3)CC2)cc1	0.74	52	0.3	1.9	0	·	·	·	·
Brc1ccc2nc3c(n2c1)CCCC3	0.62	8	0.1	5.0	-12	·	·	·	·
COc1ccc(C(CC(=O)O)NC(=O)COc2ccccc2)cc1 (stereo not drawn)	0.72	-11	1.7	-1.7	-1	·	·	·	·
CCN1CCN(S(=O)(=O)c2ccc(Oc3ccccc3OC)cc2)CC1	0.62	4	0.0	1.9	6	-13	-13	-5.7	i
CCN1C(=O)N[C@@H](c2ccco2)C(C(=O)OC)=C1C	·	-3	1.4	1.4	1	-1	0	-0.1	i
CC(C)Sc1nnc(SCC(=O)N(C)C2CCS(=O)(=O)C2)s1 (stereo not drawn)	0.72	0	0.9	2.3	-1	-5	-8	-2.7	i
COc1ccccc1CNC(=O)COc1cccc(-n2cnnn2)c1	0.66	-48	-3.6	-2.9	-5	13	8	5.7	i
O=C(CSc1nc2ccccc2c(=O)n1CC1CCCO1)NCc1ccc2c(c1)OCO2 (stereo not drawn)	0.68	-4	1.9	-1.6	-2	15	28	-8.2	i
COC(=O)C(C(=O)Nc1ncccn1)C1CCCCCC1 (stereo not drawn)	0.73	-10	0.5	-4.3	-3	·	·	·	·
CC(C)c1ccc(NC(=O)NC2CCN(CC(=O)Nc3cccc4ccccc34)CC2)cc1	0.77	6	-1.6	0.3	12	·	·	·	·
CC(C)/C=C/C(=O)N1CCC(N2CCC(C(=O)NCc3ccccn3)CC2)CC1	0.7	-14	1.9	-11	0	0	1	1.2	i
COc1ccc(NC(=O)COC(=O)C2CC(=O)N(c3ccc(OC(C)C)cc3)C2)cc1 (stereo not drawn)	0.66	-27	0.1	-1.1	-1	11	23	0.7	i
C=Cn1cc[n+](CC(=O)c2ccc(Cl)c(Cl)c2)c1	0.69	·	6.0	2.1	-3	5	3	2.9	i
COc1ccccc1C(=O)NC(=O)Nc1nc(-c2ccccc2)cc(C(F)(F)F)n1	0.73	·	6.6	3.7	-10	7	0	-5.4	i
CC(=O)/C=C(\C)Nc1c(C)n(C)n(-c2ccccc2)c1=O	0.66	10	1.6	1.1	0	10	0	-1.7	i
Cc1cc(C)n2nc(SCC(=O)Nc3c(C)nn(-c4ccccc4)c3C)nc2n1	0.64	-1	0.1	1.2	-11	·	·	·	·
CC(=O)c1ccccc1C(=O)N(C)C1CCCN(Cc2ccccc2F)C1 (stereo not drawn)	0.66	-3	-3.6	1.0	11	7	7	0.3	i
Cc1cc(C)c(NC(=O)COC(=O)CSc2ccc(Br)cc2C)c(C)c1	0.72	-2	2.1	5.3	2	·	·	·	·
O=C1c2ccccc2NC2CCCCC12 (stereo not drawn)	0.66	-11	-2.0	3.9	1	5	-5	0.5	i
COc1ccc(-c2nnc(SCC(=O)N(C)C3CCS(=O)(=O)C3)n2N)cc1OC (stereo not drawn)	0.67	·	3.9	-0.4	4	8	3	-9.3	i
NC(=O)COc1ccc(-c2noc(COc3ccccc3[N+](=O)[O-])n2)cc1	0.63	-9	4.1	6.2	0	8	7	-1.7	i
O=C(NCCC1=CCCCC1)c1ccc(Br)o1	0.69	·	-0.1	83*	2	·	·	·	·
C/C(=N\NC(=O)CSc1nc2ccccc2o1)c1ccc(O)cc1	·	99*	-6.7	·	-17	13	8	3.3	i
COCOCCn1cc(CN2CCS(=O)(=O)N(Cc3ccc(-c4ccncc4)cc3)C(C(C)C)C2=O)nn1 (stereo not drawn)	·	·	-1.3	·	·	-4	1	3.8	i
O=C(COc1nncc2ccccc12)Nc1c(F)c(F)c(F)c(F)c1F	0.7	0	-4.5	4.9	-8	10	22	1.1	i
CC1=CC(c2ccc(Cl)cc2)n2nc(NC(=O)CCC(=O)O)nc2N1 (stereo not drawn)	0.7	6	1.8	i	9	6	-7	-1.3	·
Cc1nn(C)c(Oc2ccccc2)c1CCNS(=O)(=O)c1ccc(F)cc1	0.74	-7	27	1.7	3	·	·	·	·
CCCSCCCNC(=O)CN1C(=O)COc2ccc(S(=O)(=O)N3CCCC3)cc21	0.72	-22	-0.8	1.6	-5	4	7	2.5	i
Cc1ccc(S(=O)(=O)Nc2ccc3nc(C)sc3c2)c(C)c1	0.7	-13	9.1	-0.1	6	·	·	·	i
O=C(CSc1nnc(C2CC2)n1C1CC1)c1cccs1	0.67	40	4.0	4.7	-5	0	9	0.7	i
CCC(Oc1ccccc1F)C(=O)Nc1ccc2c(c1)n(C)c(=O)n2C (stereo not drawn)	0.66	11	-0.7	3.5	-1	-7	5	-1.2	i
COc1ccc(Cl)cc1Nc1nc(-c2sc(NC(=O)C(C)(C)C)nc2C)cs1	0.69	15	11	-5.0	5	4	1	4.2	i

3 entries already listed, arranged by length of the SMILES, falling:
SMILES	E coli growth	ALR inh	HNF4A DNA FP	UCH37 inh	Beta2AR agonist	rRNA inh HTS	rRNA inh HTS OD600	rRNA inh HTS RFP	FGF22 binding
CC(=O)c1ccccc1C(=O)N(C)C1CCCN(Cc2ccccc2F)C1 (stereo not drawn)	0.66	-3	-3.6	1.0	11	7	7	0.3	i
Cc1ccc(S(=O)(=O)Nc2ccc3nc(C)sc3c2)c(C)c1	0.7	-13	9.1	-0.1	6	·	·	·	i
COc1ccccc1CNC(=O)COc1cccc(-n2cnnn2)c1	0.66	-48	-3.6	-2.9	-5	13	8	5.7	i

Carrying on.
SMILES	E coli growth	ALR inh	HNF4A DNA FP	UCH37 inh	Beta2AR agonist	rRNA inh HTS	rRNA inh HTS OD600	rRNA inh HTS RFP	FGF22 binding
CC(=O)[C@@]1(O)CCC2C3C=CC4=CC(=O)CC[C@]4(C)C3CC[C@@]21C (stereo partly drawn)	0.7	-1	-2.2	2.4	1	7	7	2.7	i
O=C(Nc1c(-c2ccc3c(c2)OCO3)[nH][nH]c1=O)c1cccc(C(F)(F)F)c1	·	·	-3.8	·	·	-2	1	-3.6	i
COc1ccc(C2c3ccc(O)cc3Oc3ncn(CCCO)c(=N)c32)cc1 (stereo not drawn)	0.7	-19	-0.5	3.6	-22	-16	-20	3.8	i
C[C@H](CO)N1C[C@H](C)[C@@H](CN(C)C(=O)Nc2ccccc2)Oc2ccc(NC(=O)Nc3ccc4c(c3)OCO4)cc2C1=O	·	-17	-2.5	·	-15	1&3	4&-2	-3.7&1.4	i
COc1ccc(Br)cc1C1CC(=O)N2CN(Cc3ccccc3)CSC2=C1C#N (stereo not drawn)	0.77	-34	3.8	4.7	8	-3	-22	6.6	i
COc1ccc(CNC(=O)C2CCCN(S(=O)(=O)c3ccc(F)cc3)C2)cc1 (stereo not drawn)	0.69	-3	3.2	-1.5	14	2	14	2.5	i
COc1ccccc1/C=N/N1C(=O)c2cccc3cccc(c23)C1=O	·	5	-9.3	·	-5	-9	-10	-4.2	i
COc1ccccc1C1/C(=C(/O)c2ccc(Cl)cc2)C(=O)C(=O)N1CCN1CCOCC1 (stereo not drawn)	0.69	11	2.5	7.5	0	·	·	·	·
COc1ccc(CCNC(=O)CSc2nc3[nH]c(=O)cc(O)c3s2)cc1	0.66	-8	-2.9	4.4	6	21	10	4.2	i
COc1ccc([C@@H]2CC=C(C(=O)O)[C@H](c3ccc(Cl)cc3)N2S(=O)(=O)c2ccc(Cl)cc2)cc1	·	37	-0.7	0.6	2	-34	-48	3.5	i
O=C(c1ccc2nc(N3CCCCC3)sc2c1)N1CCN(Cc2ccc3c(c2)OCO3)CC1	0.75	-22	6.2	5.8	-8	-28	-60	-3.1	i
CCOc1ccc(NC(=O)c2nsc(Cl)c2Cl)cc1	0.7	1	2.9	3.4	-11	8	6	-0.5	i
CCOC(=O)C1CCN(S(=O)(=O)c2ccc3c(c2)CC(=O)N3C)CC1	0.7	0	-0.9	2.1	3	3	4	-2.0	i
Cc1cc(-c2nnc(CCC(=O)NCc3ccc(OC(F)(F)F)cc3)o2)no1	0.7	1	5.6	3.6	-1	-2	-3	-0.5	i
CCO[C@H]1C[C@@H](c2ccc(CC)cc2)N(S(=O)(=O)c2ccc(C)cc2)C2CC(c3ccc(CC)cc3)N(S(=O)(=O)c3ccc(C)cc3)CC21 (stereo partly drawn)	·	·	0.8	·	·	3	-5	2.6	i

Bioassay records (PubChem)
